# Screens: PubChem, several laboratories
# PABP polyA inh: blocks human PABP binding to poly(A) RNA; actives 1% (n = 290,000); AID 2014; inhibition, % at 35 µM; P11940; fluorescence polarization;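 active = 50% or more with normal probe brightness, or confirmed in later tests; inconclusive = above 50% with abnormal brightness, or retests that disagree; inactive = below 50% or failed in later tests; about a fifth of its hits are not listed in these tables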;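 also: calls also rest on retests at 20 µM and on dose response follow-up; controls were probe without protein and protein plus probe with vehicle; some compounds called inactive have numbers as strong as hits; many hits fall short of the cut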
# MT1-MMP act inh: inhibitors of human MT1-MMP activation; P50281; actives 0.061% (n = 360,000); GFP/RFP ratio change, % at 20 µM; HT1080 RFP-PRO-GFP cells, GFP/RFP ratio fluorescence, overnight; percent of plate control window, DMSO zero;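 active = GFP/RFP ratio change of at least 30% with cell ATP level not reduced by more than half and red fluorescence within 50% of control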; also: strong numbers were not always called active
#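 Material – HT1080 RFP-PRO-GFP cells · Control set – DMSO wells and RFP-L50D-GFP cells · Incubation – overnight cell settling, then overnight compound exposure, 37 °C, 5% CO2 · Compound dosing – single-point 20 µM compound, 1% DMSO · Read-out – GFP/RFP fluorescence ratio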
# HIV Env fusion: blocks HIV Env-driven cell-cell fusion; actives 1.1% (n = 360,000); HeLa-JRFL Env/CEM21 cell fusion, luciferase; inhibition, % at 12.3 µM;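 active = mean replicate inhibition score of at least 50 and every replicate individually at or above 50; inconclusive = only one of the two criteria met; inactive = mean below 50 and not all replicates reaching 50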;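 also: 0% = plate neutral controls and 100% = maraviroc near 300 nM; one replicate is shown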
# CSC inhib: blocks cancer stem cells; cancer stem cell-like cells viability, luminescence; inhibition, % at 7.5 µM; actives 1.1% (n = 300,000);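 active = mean at 75% or more and at least half the replicates too; inconclusive = mean and replicates disagree; tested in HMLE shEcad cells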;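 also: 0% = median of negative and 100% = median of positive control wells; the first replicate is given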
# eIF4H FP inh: inhibitors of RNA binding by human eIF4H. Q15056. eIF4H fluorescence polarization binding assay. inhibition, % at 35 µM. actives 0.94% (n = 290,000);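 active = 50% or more with normal probe brightness, or confirmed in later tests; inconclusive = above 50% with abnormal brightness, or retests that disagree; inactive = below 50% or failed in later tests; about a fifth of its hits are not listed in these tables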;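 also: calls also rest on retests at 20 µM and on dose response follow-up; 0% = protein and probe with vehicle and 100% = probe without protein; strong numbers were not always called active; many hits fall short of the cut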
# Yeast UUG start: yeast start codon fidelity modulation; S. cerevisiae UUG-firefly luciferase reporter, luminescence/redox ratio; activity score, % at 18.7 µM; actives 0.13% (n = 350,000);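 active = replicate mean at a twofold rise or more, about +100% in these data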;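 also: firefly luciferase made from a UUG start codon reports start codon fidelity; reporter light over untreated wells divided by growth signal over untreated wells; some hits fall short of that in this replicate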
# Rce1 inh: blocks yeast Ras-converting enzyme | calls only | Q03530 | actives 0.27% (n = 290,000) | yeast membranes, quenched prenylated peptide cleavage fluorescence;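 active = fall in fluorescence gain of 50% or more versus controls, with final raw signal at or below 3038400; inconclusive = same 50% fall but final raw signal above 3038400; inactive = fall in fluorescence gain under 50%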;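 also: plate controls were neutral control wells for no effect and wells lacking membranes for full effect; tested at 10 µM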
# Target sequence (Q03530 whole entry, looked up): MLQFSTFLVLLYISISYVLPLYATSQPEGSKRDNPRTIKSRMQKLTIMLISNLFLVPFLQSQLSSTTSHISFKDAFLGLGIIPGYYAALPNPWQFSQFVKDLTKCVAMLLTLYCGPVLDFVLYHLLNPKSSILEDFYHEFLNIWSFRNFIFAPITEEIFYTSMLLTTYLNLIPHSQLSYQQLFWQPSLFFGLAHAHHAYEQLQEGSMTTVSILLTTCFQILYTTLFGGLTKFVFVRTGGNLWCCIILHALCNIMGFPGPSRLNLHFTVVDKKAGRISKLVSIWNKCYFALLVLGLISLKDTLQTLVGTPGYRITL
# eIF4H FP inh retest: recorded beside eIF4H FP inh, whose call it bears; inhibition, %; compound at 20 µM; confirmation average;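 mean of two retest wells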
# PABP polyA inh retest: also measured in PABP polyA inh; calls as there; inhibition, %; compound at 20 µM; confirmation repeats;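 mean of two retest wells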
# MT1-MMP act inh RFP: further read-out of MT1-MMP act inh, marked with its call; RFP signal change, %; measured here: RFP expression control read;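 0 = vehicle wells; hits needed this value within 50% of zero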
# * marks the source's active call; other numbers are inactive results; i = inactive; ? = inconclusive; nt = no result given; [ ] = another dose, or the depositor's remark.
SMILES,PABP polyA inh,MT1-MMP act inh,MT1-MMP act inh RFP,HIV Env fusion,CSC inhib,eIF4H FP inh,Yeast UUG start,Rce1 inh,others
C=CCNC(=O)CN1CCC(n2nnc3cc(C(F)(F)F)ccc32)CC1,-8,5,7,17,8,-2,nt,i,
Cc1ccc(NC(=O)C2c3ccccc3Oc3ccccc32)c(C)c1,-1,-2,4,nt,-14,-2,nt,i,
Cc1ccc(-n2[nH]c(C)c(C=Nc3cc(C)ccn3)c2=O)cc1,6,-1,3,6,33,-4,1,i,
N/C(=N\OC(=O)COc1ccccc1Cl)c1ccccn1,2,7,7,-41,23,-9,nt,nt,
COc1cc(C(=O)OCCn2c(=O)c3c(ncn3CCN(C)C)n(C)c2=O)cc(OC)c1OC,10,0,4,nt,11,-7,1,i,
CCCNC(=O)C(Cc1ccccc1)NC(=O)c1ccc(C(C)(C)C)cc1 (configuration not stated),nt,-3,-5,-7,-6,nt,-22,nt,
C#CCOCCOCCOCCNc1nc(N2CCN(C(=O)Cn3cc(CCCN=C(N)N)nn3)CC2)nc(N2CCN(C(=O)[C@H](CCCCN)n3cc(CCC(=O)O)nn3)CC2)n1,nt,-1,-1,6,9,nt,-8,nt,
CN(C)C(=O)N1CCN(C(=O)c2ccco2)CC1,-16,3,2,-1,nt,2,-16,i,
O=C(Nc1nc2ccccc2s1)c1cccc(N2C(=O)CCC2=O)c1,-1,2,7,-302,-17,-6,-23,i,
Cn1c(O)c(N=NC(=O)C2COc3ccccc3O2)c2ccccc21 (configuration not stated),-16,9,5,-17,0,-4,19,i,
COc1ccc(C2OC(=O)CC2C(=O)NCc2ccc(F)cc2)cc1OC (configuration not stated),-15,-2,-1,-21,-10,2,-5,i,
CO[C@H]1CN(C)C(=O)c2ccc(NC(=O)NC(C)C)cc2OC[C@H](C)NC[C@H]1C,nt,-4,3,-2[16.7 µM],nt,nt,1,nt,
OCc1c(OCc2cccc(F)c2)ccc2ccccc12,-6,5,-3,-57,4,4,-3,i,
COc1cccc(NC(=O)c2ccc(NC(C)=O)cc2)c1,2,1,4,nt,13,0,-6,i,
CC(CCc1ccccc1)NC(=O)CNC(=O)c1ccccc1Br (configuration not stated),1,-2,1,-7,-12,-19,-1,i,
CCOc1ccc(CN(C(=O)/C=C/c2ccco2)C2CCS(=O)(=O)C2)cc1 (configuration not stated),12,-5,-1,6,-4,7,0,i,
CC#CCOCC1CNC(=O)O1 (configuration not stated),nt,6,1,-9,nt,nt,-24,nt,
O=C(c1ccco1)N1CCCC(c2nc3c(nnn3Cc3ccc(F)cc3)c(=O)[nH]2)C1 (configuration not stated),6,-2,4,-8,-15,-9,-10,i,
Cc1cccc(OCC(O)Cn2c(=N)n(Cc3ccccc3)c3ccccc32)c1 (configuration not stated),-5,0,2,25,27,-6,4,i,
CCC1CCCCN1S(=O)(=O)c1ccc2c(c1)CCN2C(=O)C1CCC1 (configuration not stated),11,0,-6,nt,17,0,-5,i,
Cn1nnnc1SCc1ccc(Cl)cc1,7,0,4,7,-3,-2,nt,i,
CCCCCOc1ccc(CSC(=N)N)cc1[N+](=O)[O-],-1,-9,-9,nt,67,-14,-1,i,
COc1ccc(CCNS(=O)(=O)CCNC(=O)c2ccc3c(c2)OCO3)cc1OC,nt,3,5,-9,nt,nt,3,i,
O=C1OC(/C(=C\Nc2cc(Cl)ccc2O)[N+](=O)[O-])c2ccccc21 (configuration not stated),3,4,-3,42,33,40,nt,i,
Cc1cc(C)cc(C(=O)NCC(=O)OCc2c(C)noc2C)c1,9,1,3,22,-9,-2,-18,i,
# Continuation:
SMILES,PABP polyA inh,MT1-MMP act inh,MT1-MMP act inh RFP,HIV Env fusion,CSC inhib,eIF4H FP inh,Yeast UUG start,Rce1 inh,others
CC1CCN(c2ccc(C(F)(F)F)cc2N)CC1,-7,-1,0,-4,-9,19,-11,i,
COC(=O)/C(C#N)=C/c1c(Oc2cc(C)cc(C)c2)nc2c(C)cccn2c1=O,17,-13,-5,1,3,4,-11,i,
Cc1ccc(-n2ncc3c(=O)[nH]c(SCC(=O)NCC4CCCO4)nc32)cc1 (configuration not stated),nt,2,0,-1,-17,nt,-5,nt,
CC(NC(=O)C(C)(C)C)C(c1cccs1)N1CCN(Cc2ccccc2)CC1 (configuration not stated),0,-2,1,18,-13,1,-12,i,
O=C(Nc1cccc(C(=O)O)c1)/C(=C\c1ccccc1)NC(=O)c1ccco1,nt,3,5,54,nt,nt,-2,nt,
Cc1cc(C(=O)Nc2ccc(C)c(C)c2)n(-c2ccccc2)n1,4,-5,-4,2,-14,7,-4,i,
Cc1ccc(Nc2nc(N)[nH]c(=O)c2N=O)cc1,39*,0,3,-15,11,?,-13,i,PABP polyA inh retest=59*
COC(=O)c1ccc(CNC(=O)CCc2c[nH]c3ccccc23)cc1,-3,-1,1,-7,-7,-4,-5,i,
O=C(CCC(=O)c1ccc[nH]1)c1ccc(Cl)cc1,11,3,4,-239,-8,32,-20,i,
COc1cc(NC(=S)NCCSc2ccc(C)cc2)cc(OC)c1,-1,4,4,2,7,-2,nt,i,
COc1ccc(N2CCN(C(=O)COC(=O)CCOc3ccc(C)cc3)CC2)cc1,nt,6,0,-2,-10,nt,nt,i,
CNC(=O)c1c(N)sc2c1CCCCC2,128*,nt,nt,nt,11,124*,nt,i,eIF4H FP inh retest=79*;PABP polyA inh retest=90*
CCCCOc1ccccc1NC(=O)C=C(C)C,3,5,-1,nt,1,-2,5,i,
COc1cc(NC(=O)NCC2CCN(Cc3ccccc3Cl)CC2)cc(OC)c1OC,0,-3,-4,-12,-10,7,-26,i,
COc1cccc(N(CC(=O)Nc2cccc(C(C)=O)c2)S(C)(=O)=O)c1,-12,1,-1,nt,-4,-7,nt,i,
COC(=O)c1sc(NC(=O)CC(C)C)c(C(=O)OC)c1C,23,3,1,nt,-3,-3,-7,i,
COc1cc(C(C[N+](=O)[O-])c2c(C)cc3ccccn23)ccc1O (configuration not stated),24,-5,-4,-11,23,26,-8,i,
Cc1ccccc1OCC(O)Cn1c(NCc2ccccc2)nc2c1c(=O)[nH]c(=O)n2C (configuration not stated),-3,1,1,-131,nt,3,nt,i,
Cc1no[n+]([O-])c1COc1ccccc1/C=N/n1nnnc1N,-13,-6,-8,15,-3,-9,nt,i,
CN1CCc2nc(SCC(=O)Nc3ccc(OC(F)(F)F)cc3)c(C#N)c(-c3cccs3)c2C1,-4,-14,-1,-1,0,12,nt,i,
COc1ccc(-c2ccc(C(=O)NCCN(C)C)c3occc23)c(C)c1,nt,5,0,-9,nt,nt,-12,nt,
COc1cc(/C=N/n2c(-c3ccccc3)n[nH]c2=S)ccc1O,3,0,-12,2,-7,-7,nt,i,
Cc1cc(C)c(C(=O)N2CCCC(Nc3ccc(C)c(C)c3)C2)o1 (configuration not stated),-2,-3,-2,18,0,-9,-14,i,
COc1cc(C)cc(OC)c1OCC(=O)Nc1cc(C)on1,nt,-1,2,nt,-21,nt,9,nt,
Cc1cnc(C(=O)Nc2ccc(F)cc2)cn1,-3,-1,0,-101,8,-12,-24,i,
# (list continues)
SMILES,PABP polyA inh,MT1-MMP act inh,MT1-MMP act inh RFP,HIV Env fusion,CSC inhib,eIF4H FP inh,Yeast UUG start,Rce1 inh,others
CCN1CCN(C(=S)Nc2cccc(C(F)(F)F)c2)CC1,4,3,1,nt,-2,-13,-13,i,
COC(=O)C(Cc1ccc(OC(=O)c2ccc(C)cc2)cc1)N1Cc2ccccc2C1=O (configuration not stated),-9,0,1,nt,0,-14,nt,i,
CCOC(=O)c1nc(Nc2cc(C)cc(C)c2)c2ccccc2n1,-10,-1,-3,-8,-4,-10,nt,i,
O=c1[nH]nc(N2CCOCC2)c(=O)[nH]1,-9,-2,0,8,-5,2,-15,i,
COc1ccc(CN2CCn3ncc(C(=O)Nc4cccc(C)c4)c3C2=O)cc1,-4,4,-6,nt,-5,3,-16,i,
COC(=O)NC(Nc1sc2c(c1C(N)=O)CCCC2)(C(=O)OC)C(F)(F)F (configuration not stated),18,-1,-2,-33,-28,5,8,i,
CS(=O)(=O)N1CCN(CC(=O)NC2CCCC2)CC1,-12,0,2,24,6,2,-19,i,
O=C(/C=C/c1ccc(Cl)c([N+](=O)[O-])c1)NCc1cccnc1,nt,0,-4,4,-10,nt,-11,i,
CCOc1ccc(C(C)(C)C)cc1S(=O)(=O)n1nc(C)cc1C,-8,-5,-2,-34,28,0,9,i,
COCCN(Cc1cn(C)nc1-c1ccc(Oc2ccccc2)cc1)C(C)C,-4,-1,-2,-80,nt,-2,-3,i,
O=C(CC1CCS(=O)(=O)C1)NC1CCCCC1 (configuration not stated),6,2,5,-14,-15,8,-13,i,
Cc1cc2cc(CNC(=O)c3ccc4c(c3)OCO4)ccc2[nH]1,5,14,25,nt,-12,5,-16,i,
COc1ccc(NS(=O)(=O)c2ccc(NC(=O)CCNS(=O)(=O)c3ccc(C)cc3)cc2)cc1,-5,1,-5,nt,13,-2,-7,i,
O=c1cc(CN2CCN(CCO)CC2)c2cc3c(cc2o1)CCC3,-4,0,1,-16,-9,0,3,nt,
CCOc1ccc(NS(=O)(=O)c2cc(C(=O)N3CCCC3)ccc2Cl)cc1,nt,2,-3,3,-3,nt,nt,i,
O=C1CN(C(=O)c2ccccc2F)C(c2ccc(F)cc2)c2cc(Br)ccc2N1 (configuration not stated),-1,-12,-9,27,-16,-8,-21,i,
O=C(Cc1ccccc1Cl)Nc1cccnc1,59,0,5,9,-3,-8,nt,i,eIF4H FP inh retest=-2;PABP polyA inh retest=12
Cc1c(C(=O)NCc2ccc3c(c2)OCCO3)sc(=O)n1Cc1ccccc1F,nt,3,-1,2,nt,nt,-13,nt,
CNc1snc(C)c1C(=O)OCC(=O)c1ccc(Cl)cc1,nt,-3,-20,nt,-9,nt,-16,nt,
COc1ccc(-n2ncc3c2CC(C)(C)CC3NC(=O)CCN2CCCC2=O)cc1 (configuration not stated),12,-2,-1,5,-3,6,-5,i,
O=C(COC(=O)c1ccccc1)NC1CCCC1,5,-6,-1,-2,0,-2,-16,i,
CCC1=NN2C(=N)/C(=C\c3cccn3-c3ccc(Br)cc3)C(=O)N=C2S1,-2,-2,-7,8,nt,24,-1,i,
Clc1ccc(OCCn2ccnc2)c(Cl)c1,20,-6,-5,-45,-3,10,-19,i,
O=c1c(C=NCc2ccccc2)c(NCc2ccccc2)nc2ccccn12,-6,0,-1,13,-4,-6,-12,i,
CCOC(=O)C(C)Sc1nnc(-c2ccccc2O)n1Cc1ccccc1 (configuration not stated),1,-1,1,-27,-14,10,-12,i,
CCc1c(C)c2cc(Cl)c(O)c(CN3CCCCC3)c2oc1=O,-1,0,4,-41,-15,-5,-30,?,
Cc1ccc(S(=O)(=O)N2CCCC(C(=O)NC3=NCCS3)C2)cc1 (configuration not stated),3,-1,-5,nt,-13,12,nt,i,
O=S(=O)(c1cccc2cccnc12)N(CCO)CCO,6,-3,5,9,-7,-3,-11,i,
O=C(NCc1ccc(Cl)cc1)C1CCCN(c2cnccn2)C1 (configuration not stated),nt,-1,1,-18,10,nt,-15,i,

# Only part of the results is shown; the hit share may differ from the screen's.
